Anaer choline gr: inhibitors of anaerobic choline-dependent gram-negative bacterial growth; Gram-negative bacterium anaerobic choline minimal medium, absorbance growth; hits give low values; many inactives read as strong as hits in the columns shown; calls only; 0.2% of 55,000 active; AID 1963822;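 active = growth z-score on choline under -2 at 7 or 20 h with little or no fall on glycerol, limits in tiers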;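 note: stock transfer was 300 nL into about 50 µL; the organism is E. coli; final concentration not given here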
Anaer choline gr early: recorded beside Anaer choline gr, whose call it bears; z-score; measured here: choline growth z-score, timepoint 1;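 score of optical density at 7 h as mean of two plates; lower means less growth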
Numbers without * were called inactive; i = inactive. An excerpt (hit frequency here may not be typical).

structure	Anaer choline gr	Anaer choline gr early
O=C(Nc1ccc(F)c(Cl)c1)N1CCN(Cc2cc(=O)n3nc(-c4cccc(F)c4)sc3n2)CC1	i	0.45
CC(=O)Nc1ccc(-c2noc(C3CCCN(C(=O)CCc4ccccc4)C3)n2)cc1 (stereo unspecified)	i	-1.3
CN(C1CCCC1)C1CCN(c2ccc3nnc(-c4ccc(F)cc4)n3n2)CC1	i	-0.13
CC(C)Cn1nc2c(S(=O)(=O)N3CCc4ccccc4C3)cccn2c1=O	i	-0.19
Cc1csc(-c2cc(S(=O)(=O)N3CCOCC3)cn2CC(=O)N2CCCCC2)n1	i	-1.3
Cc1ccccc1-c1nc(CSc2nc(C(F)(F)F)cc(=O)[nH]2)c(C)o1	i	0.5
Cc1nc(-c2csc(S(=O)(=O)N3CCCC(C(=O)NCCN4CCCC4)C3)c2)no1 (stereo unspecified)	i	1
COc1cccc(NC(=O)Nc2nnc(COc3ccccc3F)s2)c1	i	-1.5
Cc1cc(=O)[nH]c(Nc2ccc3c(c2)OCO3)n1	i	-0.96
O=C(NC1CCCC1)c1ccc(SCCN2CCOCC2)nc1	i	-1
CCOC(=O)c1ccccc1Nc1nc(C)nc2c1CCC2	i	0.4
Cc1cccc(-n2ncc(C(=O)O)c2-n2cccc2)c1	i	0.53
CCc1nnc(NC(=O)CSc2nnc(-c3cc4cc(Cl)ccc4o3)n2C)s1	i	0.23
CC(=O)Nc1ccccc1-c1nc2ccccc2n(C(C)C(=O)Nc2ccccc2)c1=O (stereo unspecified)	i	0.38
COC(=O)CN(c1nc2nc(C)cc(C)n2n1)S(=O)(=O)c1ccc(C)cc1	i	0.25
O=C(OCC1CCCO1)c1ccc2c(c1)N(Cc1ccccc1F)C(=O)c1ccccc1S2 (stereo unspecified)	i	-0.1
Cn1c(=O)oc2cc(S(=O)(=O)NCCc3nc(-c4ccc(F)cc4)n[nH]3)ccc21	i	-0.41
Cn1cc(-c2nc(-c3ccncc3)no2)c(=O)c2cc(F)c(N3CCOCC3)cc21	i	-3.1
Cc1nn(-c2cc(N(C)C)ncn2)c(C)c1CCC(=O)Nc1ccc(Br)cc1	i	0.61
Cc1cc(S(=O)(=O)Nc2ccc(-c3ccc(N4CCOCC4)nn3)cc2)c(C)cc1Cl	i	-1.4
Cc1cc(NC(=O)Cn2c(=O)ccc3cc(S(=O)(=O)N4CCCC4)ccc32)c2ccccc2n1	i	0.25
Cc1cc(C)n(C(=O)c2sccc2S(=O)(=O)N(C)c2ccc(F)cc2)n1	i	0.51
CCC1c2ccc(C)n2CCN1C(=O)Nc1cc(Cl)ccc1OC (stereo unspecified)	i	-0.32
COc1ccc(N2CC(c3nnc(NC(=O)COc4ccc(C)cc4)o3)CC2=O)cc1 (stereo unspecified)	i	-0.62
COc1ccccc1Cc1nc2ccccc2nc1SCC(=O)Nc1nccs1	i	2.8
CN1[C@@H]2CC[C@H]1CC(OC(c1ccccc1)c1ccccc1)C2 (stereo partly specified)	i	-0.03
COc1ccc(Cl)cc1NS(=O)(=O)c1cc(-c2cc(C(F)(F)F)[nH]n2)sc1C	i	0.2
COc1ccc(-c2nc(Nc3ccc(OC)cc3OC)c3ccccc3n2)cc1	i	0.05
CCOC(=O)c1cc(-c2ccc(OC)c(S(=O)(=O)Nc3ccc(OC)cc3OC)c2)on1	i	0.64
CCOC(=O)c1nn(-c2ccccc2)c(=O)cc1NC(C)C	i	-0.06
C1=C(CCNc2nnc(Cc3cccnc3)c3ccccc23)CCCC1	i	-0.98
CCC(C(=O)NCCCOC)N1CCN(Cc2ccc(F)cc2)C(=O)C1=O (stereo unspecified)	i	0.11
Cc1cc(C)c(S(=O)(=O)c2ccc(Cl)cc2)c(=O)[nH]1	i	-0.72
O=C(NCc1ccncc1)c1sc2ncccc2c1-n1cccc1	i	-0.55
COc1ccc(CNC(=O)Cn2ccn3nc(-c4ccc5c(c4)OCO5)cc3c2=O)cc1	i	0.26
CCC1c2[nH]c3ccccc3c2CCN1C(=O)Nc1cccc(C)c1 (stereo unspecified)	i	0.98
O=S(=O)(NC(c1nnc(-c2ccccc2)o1)c1ccccc1Cl)c1ccc(F)cc1 (stereo unspecified)	i	-0.08
O=c1cc(-c2ccncc2)[nH]c2nc3ccccc3n12	i	-0.21
Cc1nnc2ccc(N3CCC(C(=O)N4CCN(c5ccccc5)CC4)CC3)nn12	i	0.56
CCn1nc2c3ccccc3n(Cc3ccc(Cl)cc3)cc-2c1=O	i	-1.5
CC(C)c1cnc2c(c1SCC(=O)NCc1ccc(F)cc1)c(=O)n(C)c(=O)n2C	i	-0.66
Fc1ccc(CSc2nccn3nc(-c4ccc(F)cc4)cc23)cc1	i	0.84
COc1cccc(C(=O)NCC(=O)OCc2cc(=O)n3nc(CC(C)C)sc3n2)c1	i	0.06
Cc1onc(-c2ccccc2Cl)c1C(=O)Nc1ccc2c(c1)oc(=O)n2C(C)C	i	-0.12
Cc1cc(-c2nn3c(COc4ccc(Br)cc4)nnc3s2)no1	i	1.1
Cc1ccc2c(c1)NC(=O)c1cc(S(=O)(=O)N3CCSCC3)ccc1O2	i	-0.95
Cc1ccccc1NC(=O)N1CCN(Cc2ccc3nccnc3c2)CC1	i	-0.47
C=CCN1CCN(C2CCN(S(=O)(=O)c3cc(F)ccc3F)CC2)C(=O)C1=O	i	-0.56
CCN1CCN(c2cc(C(=O)O)c3cc(NS(=O)(=O)c4cc(C)ccc4C)ccc3n2)CC1	i	-0.36
O=C(CSc1nnc2c(=O)n(-c3ccc(Br)cc3)ccn12)c1ccccc1	i	0.88
Cc1nc(-c2ccc(-n3cc(C(=O)Nc4ccc(Cl)cc4C)c(C)n3)cc2)no1	i	0.89
O=C(c1ccc2c(c1)OCCO2)N(Cc1cccnc1)c1nc2ccc(Cl)cc2s1	i	0.26
COc1ccc(Nc2nc(C)c3nc(C)n(-c4ccc(OC)cc4)c3n2)cc1	i	-0.66
Cc1cccc(NC(=O)c2cnn3c2NC(c2ccccc2)=CC3c2ccccc2)c1 (stereo unspecified)	i	0.9
O=C(NCc1ccc(Br)cc1)c1ccc(-c2cc(N3CCOCC3)ncn2)cc1	i	0.37
CCn1cc(-c2nc(-c3ccc(OC(C)C)cc3)no2)c(=O)c2cc(F)c(N3CCOCC3)cc21	i	-0.04

Remaining list, next part
structure	Anaer choline gr	Anaer choline gr early
CC(C)n1c(SCc2nc(-c3ccccc3)no2)nc2cc3c(cc2c1=O)OCO3	i	0.15
COc1cccc(NC(=O)c2cccn3c(-c4ccccc4F)nnc23)c1	i	0.42
COc1cccc(-c2cc3n(C)c(C)c(CCC(=O)N4CCC(Cc5ccccc5)CC4)c(=O)n3n2)c1	i	0.37
CC(=O)N[C@@H](CC(=O)N[C@H](CCC(=O)O)C(=O)O)C(=O)O	i	-0.02
O=C(O)c1ccc(C2Nc3ccc(F)cc3[C@H]3OCCC[C@@H]23)cc1 (stereo partly specified)	i	-0.52
CCc1ccc(CNC(=O)c2cc3n(n2)CCCN(Cc2ccccc2)C3=O)cc1	i	0.35
O=C(CCC(=O)N1CC=C(c2c[nH]c3ccccc23)CC1)NCc1ccc2c(c1)OCO2	i	-0.36
O=S(=O)(NCCn1c(C(F)(F)F)nc2cccnc21)c1ccc(Br)cc1	i	-0.57
Cc1nc(Nc2cc(F)ccc2F)c2c(C)c(C)n(-c3ccc(F)cc3)c2n1	i	0.48
O=C(NC1CCCCC1)c1ccc(-c2cc(N3CCCC3)ncn2)cc1	i	1.1
CCCc1nnc(NC(=O)c2sc(COc3cc(C)ccc3C)nc2C)s1	i	0.9
CC(=O)Nc1ccc(S(=O)(=O)N2CCC(c3c(C)n(Cc4ccc(F)cc4)c4ccccc34)CC2)cc1	i	0.1
Cc1ccc(-c2nnc3ccc(SCC(=O)Nc4nnc(C)s4)nn23)cc1	i	-0.61
CC1CCC(NC(=O)CN2C(=O)CCc3cc(S(=O)(=O)N4CCCCC4C)ccc32)CC1 (stereo unspecified)	i	0.05
Cc1cc2n(n1)CCCN2C(=O)CCC(=O)NCc1ccccc1	i	-0.84
O=C(NCCN1CCCCCC1)C1CCN(c2cnc(N3CCCC3)nc2)CC1	i	0.45
Cc1cc(N2CCn3c(nc4ccccc43)C2)ccc1NS(=O)(=O)c1ccc(Cl)cc1	i	0.51
COc1ccc(-c2csc(-c3nc(-c4ccccc4)cs3)n2)cc1	i	0.68
O=C1CN(C(=O)NCC2CCCO2)CCN1 (stereo unspecified)	i	0.3
COc1ccc(C2CCCN2S(=O)(=O)c2cc(OC)ccc2OC)cc1 (stereo unspecified)	i	0.06
O=C(C1CCN(c2nn3cc(-c4ccc(F)cc4)nc3s2)CC1)N1CCCC1	i	-1.2
CCn1c(=O)oc2cc(NC(=O)Nc3ccc(C)c(Cl)c3)ccc21	i	-1.1
Cc1[nH]c(C)c(S(=O)(=O)Nc2ccc3c(c2)OCCO3)c1-c1nc(C2CC2)no1	i	-0.8
O=c1n(Cc2ccc3c(c2)OCO3)nc2c(S(=O)(=O)N3CCCCC3)cccn12	i	-0.94
Cc1nc(-c2cc(S(=O)(=O)Nc3ccc(Cl)cc3)c(C)s2)sc1C	i	0.92
O=C(NC1CC1)c1[nH]c2ccccc2c1N1CCCC1=O	i	0.79
Cc1ccc2c(c1)NC(C(=O)N1CCN(c3ccc(F)cc3)CC1)NS2(=O)=O (stereo unspecified)	i	1.4
COc1ccc(C2=NS(=O)(=O)N(C)C(C(=O)Nc3ccn(Cc4ccc(C)cc4)n3)=C2)cc1	i	0.45
COc1cccc(-c2noc(=O)[nH]2)c1	i	-1.9
COc1cc(Cl)c(NC(=O)c2cc(-c3ccncc3)n[nH]2)c(OC)c1	i	0.45
O=c1c2cn[nH]c2nc(SCc2cc(=O)n3ccccc3n2)n1-c1ccccc1Cl	i	-0.18
COCCNc1c(-c2ccc(N(C)C)cc2)nc2sc3ccccc3n12	i	-0.89

Two consecutive records out of the list so far, for reference:
structure	Anaer choline gr	Anaer choline gr early
O=C(Nc1ccc(F)c(Cl)c1)N1CCN(Cc2cc(=O)n3nc(-c4cccc(F)c4)sc3n2)CC1	i	0.45
CC(=O)Nc1ccc(-c2noc(C3CCCN(C(=O)CCc4ccccc4)C3)n2)cc1 (stereo unspecified)	i	-1.3

Quoted at random: 3 entries already listed.
structure	Anaer choline gr	Anaer choline gr early
O=c1c2cn[nH]c2nc(SCc2cc(=O)n3ccccc3n2)n1-c1ccccc1Cl	i	-0.18
COCCNc1c(-c2ccc(N(C)C)cc2)nc2sc3ccccc3n12	i	-0.89
COc1cc(Cl)c(NC(=O)c2cc(-c3ccncc3)n[nH]2)c(OC)c1	i	0.45

Later entries
structure	Anaer choline gr	Anaer choline gr early
Cc1ccc(-c2nonc2NC(=O)COc2ccc(C(C)C)cc2)cc1C	i	-1
Cc1nc2nc(CNc3ccc(Cl)cc3)[nH]n2c(=O)c1C	i	1.9
CC(C)Cn1c(=O)c2sccc2n2c(CCC(=O)N3CCC(N4CCCCC4)CC3)nnc12	i	-0.14
Cc1cccc(-c2cc(Nc3ccc(C(=O)NCC(C)C)cc3)ncn2)c1	i	0.31
CCS(=O)(=O)N1CCCN(C2=NS(=O)(=O)C(c3ccc(C)cc3)=C2C)CC1	i	0.45
Cc1cc(C(=O)NC2CC2)c2cccc(C)c2n1	i	-0.95
Cc1cc(N2CCOCC2)nc(N2CCN(S(=O)(=O)c3ccc(F)cc3)CC2)n1	i	-0.75
COc1ccc(OC)c(NC(=O)c2cc(-c3ccncc3)n[nH]2)c1	i	2

Compound profiles, from the list above.
Profile of CCS(=O)(=O)N1CCCN(C2=NS(=O)(=O)C(c3ccc(C)cc3)=C2C)CC1 → Anaer choline gr = i; Anaer choline gr early = 0.45
Profile of CC(C)c1cnc2c(c1SCC(=O)NCc1ccc(F)cc1)c(=O)n(C)c(=O)n2C → Anaer choline gr = i; Anaer choline gr early = -0.66

Remaining list, next part.
structure	Anaer choline gr	Anaer choline gr early
O=C(O)C1CC(=O)N(c2ccc3c(c2)OCO3)C1 (stereo unspecified)	i	0.92
O=C(CC1CCN(S(=O)(=O)c2ccc(Cl)cc2)CC1)NCCN1CCCC1	i	0.15
COc1ccc(Sc2nc3ccccc3n3nnnc23)cc1	i	-0.48
CCOc1ccc(C2Nc3ccc(CC)cc3[C@H]3OCC[C@@H]23)cc1OCC (stereo partly specified)	i	0.82
CC1CCN(C(=O)CSc2nc3c(c(=O)n2CCc2ccccc2)SCC3)CC1	i	0.59
O=C(Nc1nnc(SCc2cc(=O)n3ccccc3n2)s1)c1ccc(F)cc1	i	0.07
CCCCCN(c1nc2nc(C)c(Cl)c(C)n2n1)S(=O)(=O)c1ccccc1	i	0.16
Cc1ccccc1NC(=O)CSc1cn(CC(=O)N2CCC(C)CC2)c2ccccc12	i	1.2
Cc1cc(C)cc(NC(=O)N2CCN(c3nnc(C)c4c(C)n(-c5ccccc5)nc34)CC2)c1	i	-1
COc1ccc(C(CNC(=O)c2ccccc2)N2CCCCC2)cc1 (stereo unspecified)	i	-0.72
COCCCN1CCn2c(nc3cc(NS(=O)(=O)c4ccccc4)ccc32)C1	i	-0.21
CCc1cc(C(=O)N2CCc3ccccc3C2)no1	i	-0.5
CCN(CC)c1cc(Nc2ccc(NS(=O)(=O)c3c(C)noc3C)cc2)nc(C)n1	i	0.04
COc1ccccc1N1CCN(c2ccc(=O)n(CC(=O)N3CCCC3)n2)CC1	i	-0.95
Cc1c(CNCC2CCCO2)c(C(=O)O)c(C)n1Cc1cccc(F)c1 (stereo unspecified)	i	0.08
Cn1c(N2CCN(C(=O)c3cnccn3)CC2)cc(=O)n(C)c1=O	i	0.4

Bioassay records (PubChem BioAssay)
